Compound activity as filed in PubChem.
INS promoter inh = TRM-6 insulin promoter activity inhibition; TRM-6 cells (human fetal islet line), insulin promoter-eGFP reporter, imaging; reporter expression induced with tamoxifen; AID 1273; inhibition, % at 2 µM; actives 0.9% (n = 130,000);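 active = inhibition above the mean plus 3 SD, with well images judged a real hit on visual review, cut at about 60% in these data, passing the limit was not always enough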
RGS16-Gao = modulates binding between human RGS16 and Galphao. O15492+P09471. bead-based flow cytometry RGS16-Galphao binding, fluorescence; actives lie on both sides. binding response (% of control), % at 10 µM. actives 0.38% (n = 220,000). AID 1441;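 active = below 25% or above 175%, edge rows of some plates excepted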;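 also: Galphao activated by GDP with aluminum fluoride before binding; 100% = wells without compound and 0% = beads without RGS; some results beyond the cut were filed as inactive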
Target sequence (O15492 whole entry, looked up): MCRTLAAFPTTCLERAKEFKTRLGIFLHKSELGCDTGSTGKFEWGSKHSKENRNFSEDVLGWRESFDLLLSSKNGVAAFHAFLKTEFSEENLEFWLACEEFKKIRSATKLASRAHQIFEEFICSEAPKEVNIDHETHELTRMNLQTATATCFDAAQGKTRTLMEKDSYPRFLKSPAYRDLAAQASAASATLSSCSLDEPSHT
Target sequence (P09471 whole entry, looked up): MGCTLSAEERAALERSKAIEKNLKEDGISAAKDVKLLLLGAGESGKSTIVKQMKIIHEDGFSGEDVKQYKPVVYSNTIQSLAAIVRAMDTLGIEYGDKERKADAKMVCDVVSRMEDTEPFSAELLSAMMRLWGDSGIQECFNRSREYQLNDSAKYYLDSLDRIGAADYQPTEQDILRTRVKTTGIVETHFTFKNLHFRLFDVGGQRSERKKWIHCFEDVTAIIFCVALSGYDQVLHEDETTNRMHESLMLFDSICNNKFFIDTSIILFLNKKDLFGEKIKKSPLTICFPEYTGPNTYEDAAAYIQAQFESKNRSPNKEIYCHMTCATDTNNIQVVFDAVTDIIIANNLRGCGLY
GALR2 agonist = activates the human galanin receptor 2. O43603. GALR2-expressing cells, agonist activation read-out. activation, %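 (tested at 5 µM)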. actives 0.48% (n = 140,000). AID 803;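 active = above mean plus 3 SD of all compounds, about 5% in these data, not always enough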;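 also: 0% = vehicle buffer wells and 100% = reference agonist at full effect; tested in CHO reporter cells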
Target sequence (O43603 whole entry, looked up): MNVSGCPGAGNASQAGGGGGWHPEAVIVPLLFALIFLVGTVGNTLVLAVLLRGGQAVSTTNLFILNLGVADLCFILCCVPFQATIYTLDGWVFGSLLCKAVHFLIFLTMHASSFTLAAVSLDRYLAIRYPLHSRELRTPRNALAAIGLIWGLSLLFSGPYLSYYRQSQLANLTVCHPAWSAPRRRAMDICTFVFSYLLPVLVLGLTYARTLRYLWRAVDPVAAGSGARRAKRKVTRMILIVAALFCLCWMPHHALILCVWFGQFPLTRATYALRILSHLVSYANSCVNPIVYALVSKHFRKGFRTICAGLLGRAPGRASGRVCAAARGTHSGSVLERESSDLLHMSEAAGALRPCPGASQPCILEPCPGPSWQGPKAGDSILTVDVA
PKD1 kinase inh = blocks activity of human protein kinase D1; Q15139; PKD1 kinase fluorescence polarization assay; inhibition, %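 (about 10 µM by stock and volumes)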; actives 0.056% (n = 200,000); AID 797;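 active = inhibition of 50% or more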;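 also: controls were vehicle for no effect and a reference inhibitor for full effect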
HSV augment = increases HSV replication in cells. HSV replication augmentation in cells, fold increase. maximum fold increase. actives 0.005% (n = 220,000). AID 1956;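 active = peak rise of 1.5-fold or more in the series; tested in PC3 cells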;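 also: first round at 10 µM; read as green reporter fluorescence; hits show the peak of a series up to 25 µM; 1 = signal of infected wells without compound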
INS promoter inh cell count = recorded beside INS promoter inh, whose call it bears; normalized cell count, %; measured here: cell count, toxicity; reference of the scale not given here;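 cells exposed to compound for 48 h; stained nuclei by imaging scaled within each plate; lower means fewer cells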
HSV augment primary fold = further read-out of HSV augment, marked with its call; fold increase; compound at 10 µM; measured here: primary screen fold increase 10 uM; tested in PC3 cells;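 GFP signal in the first replicate; 1 = infected wells without compound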
An asterisk follows results filed as active; i = inactive; nt = not tested or not shown.

structure | HSV augment | GALR2 agonist | RGS16-Gao | INS promoter inh | INS promoter inh cell count | PKD1 kinase inh | HSV augment primary fold
CS(=O)(=O)N(CCC#N)Cc1ccco1 | i | nt | 99.0 | -25.0 | 94.9 | -4.1 | 0.94
O=C1CC(c2ccccc2)Cc2nc3ncnn3cc21 (stereo unspecified) | i | -0.5 | 101.7 | 61.5 | 120.1 | -3.8 | 0.9
COc1ccc2nc(SCC(=O)Nc3ccccc3C#N)[nH]c2c1 | i | -1.7 | 97.1 | nt | nt | -8.2 | 1.02
CCn1c(SCC(=O)N2CCCC2)nc2ccccc21 | i | nt | 100.6 | -33.3 | 26.5 | -1.5 | 0.91
O=c1c([N+](=O)[O-])cccn1Cc1cccc(Cl)c1 | i | nt | 98.8 | 0.0 | 70.7 | -1.4 | 1.04
CCOc1ccc(Nc2nc(N)nc(CN3CCN(c4ccccc4F)CC3)n2)cc1 | i | nt | 98.3 | nt | nt | -3.2 | 1.02
Cc1cc(S(=O)(=O)NC2CCCCC2)ccc1OCC(=O)NCc1ccccn1 | i | -0.9 | 20.6 | -334.3 | 89.0 | 1.9 | 0.89
O=[N+]([O-])/C=C\c1ccc(N2CCCC2)c(F)c1 | nt | nt | 99.1 | -76.9 | 118.0 | -3.5 | nt
CCn1c(C(C)NC(=O)c2ccccc2C)n[nH]c1=S (stereo unspecified) | i | nt | 103.0 | -20.0 | 134.3 | -7.8 | 1.01
CCOC(=O)C1=C(C)Nc2nnnn2C1c1ccc(OC)c(Br)c1 (stereo unspecified) | i | -3.8 | 102.8 | nt | nt | -9.6 | 1.01
CC(C)CCOc1ccc(C2(C)NC(=O)N(CN3CCOCC3)C2=O)cc1 (stereo unspecified) | i | -0.6 | 102.0 | nt | nt | -10.5 | 0.96
O=C1CC(N2CCC(c3nc4ccccc4s3)CC2)C(=O)N1Cc1ccccc1 (stereo unspecified) | i | -2.6 | 111.8 | -47.2 | 110.2 | -6.1 | 0.85
COc1ccc(-c2nc(=S)[nH][nH]2)cc1OC | i | nt | 93.7 | nt | nt | 4.8 | 1
O=S(=O)(NCCc1csc(-c2cccnc2)n1)c1ccc(Cl)s1 | i | -1.4 | 93.5 | nt | nt | 1.6 | 0.68
C/C(CC(=O)Nc1ccc(OCc2ccccc2)cc1)=N\NC(=O)C(=O)Nc1ccc(C)c(Cl)c1 | i | -2.7 | 10.7 | -7.7 | 96.3 | 11.8 | 0.93
CN(C)CC/C=C1/c2cc(F)ccc2CSc2ccc(F)cc21 | i | -1.4 | 96.0 | 18.2 | 106.7 | 1.0 | 0.64

Overlap with the part before: three compounds, then new ones.
structure | HSV augment | GALR2 agonist | RGS16-Gao | INS promoter inh | INS promoter inh cell count | PKD1 kinase inh | HSV augment primary fold
O=S(=O)(NCCc1csc(-c2cccnc2)n1)c1ccc(Cl)s1 | i | -1.4 | 93.5 | nt | nt | 1.6 | 0.68
C/C(CC(=O)Nc1ccc(OCc2ccccc2)cc1)=N\NC(=O)C(=O)Nc1ccc(C)c(Cl)c1 | i | -2.7 | 10.7 | -7.7 | 96.3 | 11.8 | 0.93
CN(C)CC/C=C1/c2cc(F)ccc2CSc2ccc(F)cc21 | i | -1.4 | 96.0 | 18.2 | 106.7 | 1.0 | 0.64
Fc1ccc(CSc2ccc3nnc(-c4cccnc4)n3n2)cc1 | i | nt | 95.3 | nt | nt | 0.7 | 0.94
CSc1cccc(NC(=S)N2CCC(N(C)C3CCCC3)CC2)c1 | i | nt | 98.8 | -64.3 | 148.8 | 11.1 | 0.89
Cc1nc2ccccc2n1C(=O)N(C)C | i | nt | 114.2 | 33.3 | 86.2 | 0.3 | 0.85
COc1ccccc1C/C(N)=N/OC(=O)COc1cccc2ccccc12 | i | -0.3 | 97.9 | nt | nt | 7.2 | 1.15
C/C(=C\C(=O)c1ccncc1)Nc1ccccc1O | i | -2.5 | 100.2 | -87.5 | 96.9 | 3.1 | 0.9
COc1c(C)cc(C(=O)C2CCCN(Cc3cnc(N4CCOCC4)s3)C2)cc1C (stereo unspecified) | i | nt | 105.7 | nt | nt | -2.2 | 1.02
O=C(NC(=S)Nc1cccnc1)c1cccs1 | i | nt | 103.1 | nt | nt | 1.4 | 0.99
Cc1cccc(/C=N/N2CCN(c3ccccc3)CC2)c1 | nt | -0.1 | 31.9 | -25.0 | 120.8 | -6.0 | nt
Cc1sc2nc3ccc(N4CCCCC4)nn3c(=O)c2c1C | i | -0.8 | 94.5 | -28.1 | 85.5 | -6.1 | 0.99
C/C=C/C(=O)OCC(=O)Nc1ccccc1Br | i | nt | 99.5 | nt | nt | -0.2 | 0.98
Cc1ccc(S(=O)(=O)NNC(=O)C(O)(c2ccccc2C)c2ccccc2C)cc1 | i | 0.7 | 117.0 | -58.3 | 97.0 | 13.2 | 1.03
O=C(NC1CCCC1)C(c1ccccc1)N(Cc1cccnc1)C(=O)Cc1cccs1 (stereo unspecified) | i | nt | 108.3 | nt | nt | -1.7 | 1.07
CCOc1ccccc1NC(=O)Cn1nnc(C(=O)NCCc2ccc(OC)c(OC)c2)c1N | i | nt | 97.1 | -14.3 | 117.0 | -5.4 | 0.94
O=C(/C=N/O)NCC1CCNCC1 | i | -2.3 | 101.5 | 25.0 | 90.5 | -3.3 | 0.81
Cc1ccc(Cn2nnc3c(=O)[nH]c(C4CCCN(C(=O)Nc5ccc(F)cc5F)C4)nc32)cc1 (stereo unspecified) | i | 0.3 | 108.4 | 28.6 | 150.0 | -9.1 | 0.93
CCOC(=O)c1c(NC(=O)CSc2n[nH]c(N)n2)sc(CC)c1C | i | -0.8 | 82.9 | nt | nt | -2.5 | 0.97
Brc1ccc(OCc2ccccc2)c(CNCc2ccncc2)c1 | i | -1.4 | 91.4 | -43.3 | 67.9 | -2.7 | 0.95
O=C1CSC(c2ccccn2)N1c1ccc(Cl)c(Cl)c1 (stereo unspecified) | i | -1.3 | 63.1 | 15.4 | 41.0 | -6.9 | 0.91
Cn1c(SCC(=O)Nc2nc3c(s2)CCCC3)nnc1-c1ccccc1 | i | -1.3 | 97.4 | 19.2 | 120.7 | -7.1 | 0.94
CC1OC(Nc2ccc(OC(F)(F)F)cc2)C(O)C(O)C1O (stereo unspecified) | i | -0.4 | 90.2 | 21.4 | 113.6 | 12.9 | 0.96
CCCN(CC1CC1)C(=S)Nc1ccccc1F | i | nt | 103.3 | nt | nt | 0.5 | 1.06
Cc1cccc(N=Nc2c(C)[nH]n(C(N)=S)c2=O)c1C | i | nt | 111.2 | nt | nt | 0.5 | 0.56
CN1CCN(S(=O)(=O)c2ccc(Sc3nnc(-c4cccs4)n3-c3ccccc3)nc2)CC1 | i | 0.4 | 99.7 | -28.9 | 114.8 | -5.3 | 0.86
CCOc1ccc(C(C)=O)cc1CSc1nc(C)cc(C)n1 | i | nt | 123.9 | -76.2 | 202.4 | -3.8 | 0.79
COc1ccccc1CN(C)CC(=O)Nc1ccc(Cl)cc1C(F)(F)F | i | 2.0 | 103.3 | -51.6 | 131.9 | -6.7 | 0.97
COc1cccc(/C=N/NC(=O)c2cnn(-c3ccccc3)c2N)c1 | i | nt | 97.3 | nt | nt | nt | 0.83
Cc1ccc(C(=O)NCC2CCCO2)cc1N1CCCC1=O (stereo unspecified) | i | -1.7 | 92.4 | -13.3 | 113.0 | -40.2 | 0.92
CC(C)C(=O)NC(=S)Nc1ccc(S(=O)(=O)N(C)C)cc1 | i | -0.2 | 68.2 | -2.6 | 103.6 | 3.5 | 0.93
O=C(O)c1ccc(-n2c(=O)c3ccccc3c3ccccc3c2=O)cc1 | i | nt | 92.1 | nt | nt | -4.1 | 1.04
CCCn1c(N2CCN(CC(=O)Nc3ccc4c(c3)OCCO4)CC2)nc2ccccc21 | i | 0.9 | 99.2 | 13.2 | 100.0 | -5.6 | 0.86
Cc1cccc(NC(=S)NN(Cc2ccccc2)c2ccccc2)c1C | i | -1.6 | 97.2 | nt | nt | 2.0 | 1.11
Cc1ccc(C(=O)N2CCN(c3ccc(C(F)(F)F)cn3)CC2)cc1 | i | -1.8 | 99.6 | 17.1 | 114.7 | 8.8 | 0.957

Record cards, as listed above. Order of screens: HSV augment, GALR2 agonist, RGS16-Gao, INS promoter inh, INS promoter inh cell count, PKD1 kinase inh, HSV augment primary fold
Profile of CSc1cccc(NC(=S)N2CCC(N(C)C3CCCC3)CC2)c1 : i, nt, 98.8, -64.3, 148.8, 11.1, 0.89
Profile of CCOc1ccc(C(C)=O)cc1CSc1nc(C)cc(C)n1 : i, nt, 123.9, -76.2, 202.4, -3.8, 0.79

Following part
structure | HSV augment | GALR2 agonist | RGS16-Gao | INS promoter inh | INS promoter inh cell count | PKD1 kinase inh | HSV augment primary fold
CC(C)(C)C(=O)C(Oc1cccc2nonc12)n1cncn1 (stereo unspecified) | i | 0.5 | 102.1 | -63.6 | 91.3 | -4.4 | 0.84
CCCc1cc(C(=O)NNC(=S)NCC2CCCO2)cs1 (stereo unspecified) | i | -0.4 | 80.3 | nt | nt | -4.1 | 1.46
N#Cc1c2n(c3c(=O)n(CC(=O)c4ccc([N+](=O)[O-])cc4)cnc13)CCCCC2 | i | -2.5 | 102.5 | 11.1 | 90.3 | -12.3 | 0.79
COC(=O)c1sc(-c2ccccc2)cc1NC(=O)c1ccccc1 | i | -0.8 | 95.7 | 12.5 | 106.2 | 3.3 | 0.91
COc1ccc(OCC(=O)N2CCN(C(=O)Cc3ccccc3)CC2)cc1 | i | -1.3 | 59.9 | -13.9 | 82.3 | -11.8 | 0.99
CCn1c(-c2ccc(F)cc2)cnc1SCC(=O)N1CCCCC1C (stereo unspecified) | i | -0.2 | 98.9 | -27.0 | 129.3 | 0.1 | 0.943
NS(=O)(=O)c1ccc(CCNC(=O)c2ccc3c(c2)OCCO3)cc1 | i | nt | 99.6 | nt | nt | -0.4 | 1.02
O=C(Nc1ncc([N+](=O)[O-])s1)C1CCN(S(=O)(=O)c2cnc[nH]2)CC1 | i | -0.5 | 107.3 | -25.0 | 117.0 | -15.0 | 0.97
COC(=O)c1sccc1NC(=S)Nc1ccc(OC)cc1 | i | nt | 180.9 | nt | nt | -8.4 | 0.94
CC(=O)Nc1ccc(NC(=O)C2CCCN(C(=O)c3ccc(Cl)cc3)C2)cc1 (stereo unspecified) | i | nt | 99.2 | 6.7 | 56.8 | -6.5 | 1.03
Cc1cc(C)cc(NC(=O)N2CCC(NC(=O)c3ccc(F)cc3)CC2)c1 | i | -0.7 | 100.7 | 21.9 | 79.8 | -0.2 | 0.92
C=CCOC(=O)C1=C[C@H](c2ccc(Br)cc2)[C@@H](CCCO)[C@H](OCC)O1 | i | nt | 99.7 | nt | nt | 1.2 | 0.75
C/C(=N\N=C1\NC(=O)C(CC(=O)Nc2ccc(C)c(Cl)c2)S1)C(C)(C)C (stereo unspecified) | i | nt | 99.5 | nt | nt | 7.6 | 0.96
CC(C)NC(=S)N/N=C/c1cccnc1 | i | nt | 98.6 | nt | nt | nt | 1.03
CCOc1ccccc1NC(=O)CN1CCC(NC(=O)c2ccccc2)CC1 | i | -0.9 | 101.2 | -46.0 | 116.0 | 0.2 | 0.88
O=C1c2ccccc2S(=O)(=O)N1CCOc1ccccc1 | i | -2.3 | 92.4 | nt | nt | 5.9 | 0.69
Cc1cc(C(=O)CSc2ccc3c(c2)OCCO3)c(C)n1C1CC1 | i | -0.8 | 111.5 | 0.0 | 74.1 | -17.8 | 1.02
CC1CCN(S(=O)(=O)c2cccc(C(=O)NCc3cccs3)c2)CC1 | i | -1.0 | 104.3 | nt | nt | 1.6 | 1.02
O=C(O)c1ccccc1SCc1cn2cc(Br)ccc2n1 | i | nt | 101.8 | -14.3 | 99.6 | -5.9 | 0.92
CCN(CC)CCCNC(=O)CSc1c2c(nc3cc(Cl)ccc13)CCCC2 | i | nt | 102.9 | 18.9 | 74.4 | 3.4 | 0.63
Cc1cc(C)c(C)c(OCCCN(C)C)c1 | i | -0.7 | 105.4 | 28.6 | 153.7 | -11.0 | 0.98
Cc1cc(NC(=O)CCCN2C(=O)c3cccc4cccc(c34)C2=O)no1 | i | nt | 100.8 | nt | nt | -9.7 | 1
CC(C)N1C(=O)C(Cc2nc3ccccc3c(=O)n2-c2ccccc2)c2ccccc21 (stereo unspecified) | i | 0.3 | 104.7 | nt | nt | -4.4 | 0.96
O=C(N/N=C/CCc1ccccc1)C1CCCCC1 | i | -2.0 | 107.0 | 30.8 | 103.1 | -6.8 | 0.93
COC(=O)CC1C(=O)NCCN1C(=S)Nc1cccc(C(F)(F)F)c1 (stereo unspecified) | i | nt | 102.1 | 0.0 | 102.7 | -6.2 | 1
FC(F)(F)c1ccc(N2CCN(c3ncnc4c3nnn4Cc3ccccc3)CC2)nc1 | i | -1.7 | 102.6 | 9.1 | 73.9 | -14.6 | 0.97
